rRNA inh HTS = inhibitors of bacterial rRNA selective over humanized ribosomes | E. coli WT GFP vs humanized-ribosome RFP mutants, fluorescence, 24 h; hits give low values; DMSO median 0, no signal -100 | GFP signal change (wild-type ribosome), % (test concentration not listed) | 350,000 tested, 1.6% active | AID 720706;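 active = significant combined selectivity score with lowered wild-type GFP, culture density cut under 30%, mutant RFP and density less affected; inactive = any of these conditions unmet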; also: one replicate is shown; some compounds called inactive have numbers as strong as hits
rRNA inh HTS OD600 = recorded beside rRNA inh HTS, whose call it bears; OD600 change, %; measured here: OD600 growth;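 optical density of the mix in the first replicate; 0 = DMSO median and -100 = no signal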
rRNA inh HTS RFP = second read-out of rRNA inh HTS, no call of its own (marks repeat the call); RFP signal change, %; measured here: RFP humanized mutant strains;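 first replicate; 0 = DMSO median and -100 = no signal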
* hit, by the source's call. These rows are one share of the data (hit frequency here may not be typical).

Results follow in this order: rRNA inh HTS	rRNA inh HTS OD600	rRNA inh HTS RFP
COc1ccc([C@@H]2C/C=C\C[C@H](C(C)C)NC(=O)CCC(=O)N2)c(OC)c1
→ 7.2	1.9	2.1
C[C@H](CO)N1C[C@H](C)[C@@H](CN(C)C(=O)Nc2ccc3c(c2)OCO3)OCc2ccccc2-c2ccccc2C1=O
→ -0.6	-2.9	-2.3
CCCNC(=O)N1[C@H](CO)[C@H](c2ccc(C#CC3CC3)cc2)[C@H]1CNC
→ -1.5	-7.4	-1.4
CO[C@@H]1CN(C)C(=O)c2cc(NC(=O)C3CCCC3)ccc2OC[C@H](C)N(C(C)=O)C[C@H]1C
→ 0.3	-0.1	-0.4
Cc1ccc(S(=O)(=O)N2C[C@@H]3[C@H](c4ccccc42)[C@@H](CO)N3Cc2cccnc2)cc1
→ -5.2	-4.8	8.1
CCC(=O)N1[C@H](CO)[C@H](c2ccc(C3=CCCC3)cc2)[C@@H]1CNC(=O)CN(C)C
→ 2.1	6.0	0.8
Cc1noc(C)c1NC(=O)N(C)C[C@@H]1Oc2ccc(NS(=O)(=O)c3c(C)noc3C)cc2C(=O)N([C@@H](C)CO)C[C@H]1C
→ 0.7	5.5	-1.5
COc1ccc(NC(=O)Nc2ccc3c(c2)CC(=O)N([C@H](C)CO)C[C@@H](C)[C@@H](CN(C)CC2CCCCC2)O3)cc1
→ 5.1	7.3	3.8
CO[C@@H]1CN(C)C(=O)c2ccc(NC(=O)C3CC3)cc2OC[C@H](C)N(Cc2cccc(F)c2)C[C@@H]1C
→ -2.0	0.0	-3.5
C[C@H]1CN([C@@H](C)CO)C(=O)c2cccc(NC(=O)Nc3ccc(C(F)(F)F)cc3)c2O[C@H]1CN(C)S(=O)(=O)c1ccccc1
→ 3.4	0.2	5.1
CC(C)CC#Cc1ccc2c(c1)O[C@@H](CN(C)C(=O)C1CC1)[C@@H](C)CN([C@@H](C)CO)S2(=O)=O
→ -9.3	-42.2	25.1
O=C(Nc1ccccc1F)N1CC(=O)N2[C@@H](CO)[C@H](c3ccc(-c4ccc(F)cc4)cc3)[C@@H]2C1
→ -5.8	-3.6	4.1
COC(=O)[C@@H]1[C@@H](CO)[C@@H]2Cn3c(ccc(C4=CCCC4)c3=O)[C@@H]2N1C(=O)C1CCC1
→ 1.3	-1.1	-3.2
COC(=O)[C@H]1[C@H](CO)[C@H]2Cn3c(ccc(-c4ccc(OC)cc4)c3=O)[C@H]2N1S(C)(=O)=O
→ -2.9	4.4	-2.5
C[C@H]1CC=CC[C@@H](c2ccc(F)cc2)NC(=O)[C@H](Cc2ccccc2)N(C)C(=O)c2ccccc2O1 (mixture of isomers)
→ -3.8	-15.5	-2.6
CC(=O)N(C)C[C@H]1Oc2ccccc2C(=O)N(C)C[C@@H]1C
→ 0.5	3.1	-0.5
Cc1ccc(S(=O)(=O)N(C)C[C@H]2Oc3ccc(NS(=O)(=O)c4cn(C)cn4)cc3CC(=O)N([C@@H](C)CO)C[C@H]2C)cc1
→ 1.9	-2.2	-1.3
C[C@H]1CN([C@@H](C)CO)C(=O)CCCn2cc(nn2)CO[C@H]1CN(C)C(=O)Nc1ccc(C(C)(C)C)cc1
→ -2.1	-0.5	-1.1
C[C@@H]1C/C=C\C[C@@H](c2ccc3c(c2)OCO3)NC(=O)[C@@H](c2ccccc2)CC(=O)N1
→ -1.2	-6.6	-2.7
C[C@H]1CC(=O)NCC/C=C\C[C@@H](c2ccc3c(c2)OCO3)NC1=O
→ -3.9	-2.2	-1.3
COc1ccc([C@H]2CC=CC[C@H](C)Oc3ccccc3C(=O)N(C)[C@H](C)C(=O)N2)c(OC)c1 (mixture of isomers)
→ -1.0	-5.5	-3.4
CC(=O)Nc1ccc2c(c1)CC(=O)N(C)C[C@@H](C)[C@H](CN(C)C(=O)NC(C)C)O2
→ -0.1	3.4	-0.9
CC(C)(C)S(=O)N1Cc2cc(C(=O)O)nc(-c3cccc(C#CCC4CCCC4)c3)c2[C@H]1CCO (some centres not stated)
→ -8.1	-6.1	0.9
COc1ccc2c3c([nH]c2c1)[C@@H](CO)N(Cc1ccccc1)CC31CN(C(=O)Cc2ccccc2)C1
→ -6.5	-20.1	5.8
C[C@H](CO)N1C[C@H](C)[C@H](CN(C)C(=O)Nc2ccccc2)Oc2c(NS(=O)(=O)c3cccs3)cccc2C1=O
→ -4.2	-1.5	2.7
COc1ccc2c3c(n(C)c2c1)[C@H](CO)N(C(=O)CC1CC1)CC31CN(C(=O)C2CC2)C1
→ -2.8	2.3	-1.2
Cc1noc(C)c1S(=O)(=O)N(C)C[C@H]1Oc2ccc(NC(=O)Cc3cn(C)c4ccccc34)cc2C(=O)N([C@H](C)CO)C[C@@H]1C
→ -6.2	-4.5	5.0
C[C@@H]1CN([C@H](C)CO)C(=O)c2cc(NS(=O)(=O)c3ccc(Cl)cc3)ccc2O[C@H]1CN(C)Cc1ccc(C(F)(F)F)cc1
→ -4.5	14.9	-3.3
CN1CCCCN2[C@H](C1)[C@@H](c1ccc(/C=C/c3ccccc3)cc1)[C@@H]2CO
→ -3.2	-1.7	6.9
COc1ccc(CN2CCCCN3[C@H](C2)[C@H](c2ccc(-c4ccc(OC)cc4)cc2)[C@@H]3CO)cc1
→ 0.7	2.6	3.4
CNC[C@H]1OCCCC[C@@H](C)Oc2ccc(NC(=O)Nc3ccc(F)cc3)cc2C(=O)N([C@H](C)CO)C[C@@H]1C
→ 3.4	4.3	-1.8
CCC(=O)Nc1ccc2c(c1)OC[C@@H](C)N(C(=O)CC)C[C@@H](C)[C@@H](OC)CN(C)C2=O
→ 5.0	5.5	-1.9
C[C@H](CO)N1C[C@H](C)[C@H](CN(C)Cc2cccc(F)c2)OCc2ccccc2-c2ccccc2C1=O
→ -5.5	-36.6	-2.7
CC(C)CC#Cc1ccc([C@@H]2[C@H]3CN(S(C)(=O)=O)CC(=O)N3[C@H]2CO)cc1
→ -1.3	-13.8	10.1
CCC(=O)N1[C@@H](CO)[C@@H]2c3ccccc3N(C(=O)c3cccc(OC)c3)C[C@@H]21
→ 3.8	4.3	-1.0
C[C@H]1CN(C)C(=O)c2cc(N)ccc2O[C@@H]1CN(C)C
→ -0.6	1.0	-1.5
CNC[C@@H]1OCCCC[C@H](C)Oc2ccc(N(C)C)cc2C(=O)N([C@@H](C)CO)C[C@@H]1C
→ 6.6	1.8	-1.1
COc1ccc(C[C@H]2CCn3cc(nn3)COCCCNC2=O)cc1
→ 4.3	12.3	-1.1
Cc1noc(C)c1NC(=O)Nc1ccc2c(c1)C(=O)N([C@@H](C)CO)C[C@H](C)[C@@H](CN(C)S(=O)(=O)c1ccccc1)O2
→ 2.3	8.7	-0.2
C[C@@H]1CN([C@H](C)CO)C(=O)CCCn2cc(nn2)CO[C@@H]1CN(C)Cc1cccc(C(F)(F)F)c1
→ -1.9	-2.2	2.0
CCCN1C[C@@H](C)[C@@H](OC)CN(C)C(=O)c2cc(NC(=O)C3CCC3)ccc2OC[C@H]1C
→ -0.3	4.3	0.3
CCS(=O)(=O)N1CC2(CCN(Cc3cccc(OC)c3)CC2)c2c([nH]c3cc(OC)ccc23)[C@@H]1CO
→ 1.9	-2.9	-1.5
COCC(=O)N1CCCCN2[C@H](C1)[C@@H](c1ccc(-c3ccc(C)cc3)cc1)[C@@H]2CO
→ -1.5	-1.4	0.8
O=C(Cc1ccncc1)Nc1ccc2c(c1)[C@H]1C[C@@H](CC(=O)N3CCCCC3)O[C@H](CO)[C@H]1O2
→ 2.9	7.1	-1.3
CC=Cc1ccc2n(c1=O)C[C@H]1[C@H](CO)[C@@H](C(=O)N[C@H](C)c3ccccc3)[C@@H]2N1Cc1cccnc1 (mixture of isomers)
→ 0.1	3.5	-2.3
CCCC(=O)Nc1ccc2c(c1)C(=O)N(C)C[C@@H](OC)[C@H](C)CN(Cc1ccncc1)[C@@H](C)CO2
→ 2.3	2.7	-0.9
CNC[C@@H]1Oc2ccc(NC(=O)Cc3cn(C)c4ccccc34)cc2C(=O)N([C@@H](C)CO)C[C@@H]1C
→ 8.1	12.6	5.7
COc1ccc2c3c(n(C)c2c1)[C@@H](CO)N(C(C)=O)CC31CN(C(=O)NC(C)C)C1
→ 5.4	11.2	-3.0
C[C@H]1CC=CC[C@@H](c2ccc3c(c2)OCO3)NC(=O)[C@H](C)N(C)C(=O)c2ccccc2O1 (mixture of isomers)
→ -6.0	-12.6	1.7
Cc1noc(C)c1S(=O)(=O)N(C)C[C@@H]1Oc2ccc(NC(=O)Nc3ccccc3)cc2CC(=O)N([C@@H](C)CO)C[C@@H]1C
→ 4.7	-11.8	-2.2
COCC(=O)Nc1ccc2c(c1)OC[C@H](C)N(C(=O)C1CCCC1)C[C@@H](C)[C@H](OC)CN(C)C2=O
→ -0.8	-4.0	-0.4
CCCN1C[C@H](C)[C@@H](OC)CN(C)C(=O)c2ccc(NC(=O)c3cccc(OC)c3)cc2OC[C@@H]1C
→ -3.0	3.1	12.3
CC(=O)Nc1cccc2c1O[C@H](CN(C)C)[C@H](C)CN(C)C2=O
→ 2.5	6.1	-0.1
COc1ccc(CNC(=O)C[C@H]2CC[C@H]3[C@H](COc4ccc(NC(=O)C(C)C)cc4C(=O)N3C)O2)cc1
→ -0.8	1.3	-0.5
CCCNC(=O)N1CCC2(CC1)CN(C(=O)CC1CC1)[C@@H](CO)c1c2c2ccc(OC)cc2n1C
→ -1.1	-0.5	-2.5
CCC(=O)N1[C@H](C#N)[C@H](c2ccccc2-c2ccccc2)[C@@H]1CO
→ 3.5	13.0	0.8
CCCNC(=O)Nc1ccc2c(c1)C(=O)N(C)C[C@H](OC)[C@H](C)CN(C(=O)C1CCCCC1)[C@H](C)CO2
→ -0.6	-1.8	1.0
C[C@H](CO)N1C[C@H](C)[C@@H](CN(C)Cc2ccccc2)Oc2cc(-c3ccccc3)ccc2S1(=O)=O
→ -0.2	-1.1	3.8
CO[C@@H]1CN(C)C(=O)c2cc(NC(=O)CC(F)(F)F)ccc2OC[C@@H](C)N(C(=O)C2CCOCC2)C[C@H]1C
→ 6.1	4.3	-0.7
C[C@@H]1CN([C@@H](C)CO)C(=O)c2cc(C#CC3CCCCC3)cnc2O[C@@H]1CN(C)Cc1cccnc1
→ 3.0	-22.6	27.1

2 compounds drawn at random from those above:
Results follow in this order: rRNA inh HTS	rRNA inh HTS OD600	rRNA inh HTS RFP
O=C(Cc1ccncc1)Nc1ccc2c(c1)[C@H]1C[C@@H](CC(=O)N3CCCCC3)O[C@H](CO)[C@H]1O2
→ 2.9	7.1	-1.3
C[C@@H]1CN([C@@H](C)CO)C(=O)c2cc(C#CC3CCCCC3)cnc2O[C@@H]1CN(C)Cc1cccnc1
→ 3.0	-22.6	27.1

More records follow:
Results follow in this order: rRNA inh HTS	rRNA inh HTS OD600	rRNA inh HTS RFP
CC(=O)N1CC2(C1)[C@H](c1ccccc1)[C@@H](CO)N2Cc1ccccc1F
→ 1.3	0.8	-2.2
CNC[C@@H]1OCCCC[C@@H](C)Oc2ccc(NC(=O)Nc3cccc4ccccc34)cc2C(=O)N([C@H](C)CO)C[C@@H]1C
→ 1.4	-2.7	-0.5
CCCN1C[C@@H](C)[C@H](OC)CN(C)C(=O)c2cc(NC(=O)Nc3cccc(F)c3)ccc2OC[C@@H]1C
→ -2.4	-3.8	4.0
CNC[C@H]1Oc2ccc(NC(C)=O)cc2CC(=O)N(C)C[C@H]1C
→ -1.3	-4.8	2.0
CO[C@@H]1CN(C)C(=O)c2cc(NC(=O)c3cccc(F)c3)ccc2OC[C@@H](C)N(C(C)=O)C[C@@H]1C
→ 0.6	5.3	-1.4
COCC(=O)NC[C@@H]1[C@@H](c2ccc(C3=CCCC3)cc2)[C@H](CO)N1C(=O)C1CC1
→ -2.1	-4.7	0.7
C/C=C/c1ccc([C@@H]2[C@@H](CO)N(C(=O)NCCC)[C@@H]2CNC(=O)C2CC2)cc1
→ -9.7	-2.7	-4.4
CN(C[C@H]1N[C@@H](CO)[C@H]1c1ccc(-c2ccccc2)cc1)C(=O)C1CCC1
→ -0.7	4.1	4.5
COc1ccc(-c2ccc3c(c2)O[C@H](CN(C)CC2CC2)[C@H](C)CN([C@H](C)CO)S3(=O)=O)cc1
→ 1.6	-2.8	2.4
C[C@H]1CN(C)C(=O)c2cccc(N)c2O[C@H]1CN(C)C
→ 0.0	7.1	-1.1
COc1ccc2c3c(n(C)c2c1)[C@@H](CO)N(Cc1nccs1)CC31CCN(CC2CCCC2)CC1
→ -3.2	-6.1	-0.6
C[C@@H]1CN([C@@H](C)CO)C(=O)c2cc(N(C)C)ccc2O[C@@H](C)CCCCO[C@@H]1CN(C)C(=O)Nc1ccc2c(c1)OCO2
→ 0.4	4.8	-2.1
COCC#Cc1ccc2c(c1)O[C@H](CN(C)CC1CCCCC1)[C@H](C)CN([C@H](C)CO)S2(=O)=O
→ 1.2	-0.4	1.0
C[C@@H](O)C#Cc1cnc2c(c1)C(=O)N([C@@H](C)CO)C[C@H](C)[C@H](CN(C)CC1CC1)O2
→ 5.6	10.2	-0.8

Looked up above.
rRNA inh HTS OD600 with COCC#Cc1ccc2c(c1)O[C@H](CN(C)CC1CCCCC1)[C@H](C)CN([C@H](C)CO)S2(=O)=O = -0.4
rRNA inh HTS OD600 with C/C=C/c1ccc([C@@H]2[C@@H](CO)N(C(=O)NCCC)[C@@H]2CNC(=O)C2CC2)cc1 = -2.7
rRNA inh HTS RFP with COc1ccc(-c2ccc3c(c2)O[C@H](CN(C)CC2CC2)[C@H](C)CN([C@H](C)CO)S3(=O)=O)cc1 = 2.4
rRNA inh HTS with C[C@@H](O)C#Cc1cnc2c(c1)C(=O)N([C@@H](C)CO)C[C@H](C)[C@H](CN(C)CC1CC1)O2 = 5.6
